Bioassay records: PubChem BioAssay, National Center for Advancing Translational Sciences (NCATS)
VDR inhibitor – vitamin D3 receptor (human) inhibition; VDR-SRC2-3 peptide fluorescence polarization, 2 h; Potency, µM, inactives show max response, negative = inhibition, most hits filed as inhibitors; 400,000 tested, 0.93% active; active means well fitted inhibition curve with a large enough effect; inconclusive means small, poorly fitted or top-dose-only effect, or another doubt; inactive means no such curve, though single readings can be large or run the other way; further: series mostly up to about 120 µM
Target sequence (P11473 whole entry, looked up): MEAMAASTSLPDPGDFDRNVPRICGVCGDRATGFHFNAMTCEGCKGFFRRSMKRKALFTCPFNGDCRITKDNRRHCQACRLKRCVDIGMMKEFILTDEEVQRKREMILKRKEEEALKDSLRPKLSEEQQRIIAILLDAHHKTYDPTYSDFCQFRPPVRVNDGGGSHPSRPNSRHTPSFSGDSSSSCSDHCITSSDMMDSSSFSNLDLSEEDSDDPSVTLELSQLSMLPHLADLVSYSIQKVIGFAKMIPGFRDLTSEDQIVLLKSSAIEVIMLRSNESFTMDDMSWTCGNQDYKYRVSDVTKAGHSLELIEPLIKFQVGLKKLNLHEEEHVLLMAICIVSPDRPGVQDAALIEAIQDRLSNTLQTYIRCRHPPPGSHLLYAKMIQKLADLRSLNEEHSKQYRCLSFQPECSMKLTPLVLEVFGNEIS
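Signal is fluorescence polarization, reporting how far test compounds block the interaction of VDR with the SRC2-3 coregulator peptide after a 2 h room-temperature incubation.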
Numbers without * were called inactive; & = joins results of further samples. On the % scale 0 is the no-effect control and ±100 the full control effect; potency means the concentration at half of the fitted maximal effect.

Results for Cc1cccn2c(=O)c(C(=O)NCCCN3CC(C)CC(C)C3)c(O)nc12 (configuration not stated) ?
VDR inhibitor: -4%

How did CC1(C)CC(N(Cc2ccccc2)C(=O)Cc2ccccc2)CCO1 (configuration not stated) do in these assays?
VDR inhibitor: -12%

What do the screens show for `Clc1ccc(OCCn2cnc(Cl)c2Cl)cc1`?
VDR inhibitor: 3%

How did COC(C[C@H]1O[C@H]1[C@@H](O)[C@H](C)OCc1ccccc1)OC do in these assays?
VDR inhibitor: -4%

How did COc1ccccc1C(CC(=O)Nc1nccs1)c1ccco1 (configuration not stated) do in these assays?
VDR inhibitor: -18%

Results for COc1ccc(OC)c(/C=C/C(=O)OCC(=O)NCc2ccco2)c1 ?
VDR inhibitor: 7%

What do the screens show for `Cc1c(C(=O)NCc2cccc(Cl)c2)sc2ncnc(N(C)C3CCCCC3)c12`?
VDR inhibitor: 4%

What do the screens show for `CCOC(=O)c1c(C)[nH]c(C)c1-c1ccccc1OC`?
VDR inhibitor: -1%

Results for COc1ccc(CCNC(=O)CCCCn2c(=O)c3ccccc3n(CC(=O)Nc3ccccc3C)c2=O)cc1OC ?
VDR inhibitor: -11%

Results for COc1ccc(/C=N/NC(=O)CCc2c(C)n[nH]c2C)cc1O ?
VDR inhibitor: -7%

How did COCc1ccccc1C1=CC(=O)C[C@H](c2ccc(OC)cc2)C1 do in these assays?
VDR inhibitor: -11%

What do the screens show for `Cn1cccc1Cc1nnc(SCC(=O)N2CCN(c3ccccc3)CC2)n1-c1ccc(F)cc1`?
VDR inhibitor: -5%

How did CC(=O)c1c(C)n(-c2ccc(Cl)cc2)c2ccc(OC(=O)COc3ccccc3)cc12 do in these assays?
VDR inhibitor: -10%

How did Cc1nnc(SCC(=O)NCCN2C(=O)CSC2=O)s1 do in these assays?
VDR inhibitor: -1%

How did COc1ccc(Nc2nc(C)cc(C)c2C(N)=O)cc1OC do in these assays?
VDR inhibitor: 1%

What do the screens show for `COc1ccc(CNC(=O)C2CCNCC2)cc1`?
VDR inhibitor: 1%

What do the screens show for `O=C(CCN1C(=O)C2CCCCC2C1=O)Nc1cc([N+](=O)[O-])ccc1Cl` (configuration not stated)?
VDR inhibitor: -12%

What do the screens show for `c1ccc(Cn2nnc3c(N4CCc5ccccc5C4)ncnc32)cc1`?
VDR inhibitor: -13%

Results for CN(Cc1ccccc1)S(=O)(=O)c1nnc(NC(=O)c2ccccc2)s1 ?
VDR inhibitor: 14%&-4%

How did COc1ccc(CCNC(=O)CSc2nnc(-c3cccc(F)c3)o2)cc1OC do in these assays?
VDR inhibitor: 15%

Results for COc1ccccc1NC(=O)Cn1cc(C(=O)c2ccco2)c2ccccc21 ?
VDR inhibitor: -9%

How did CCOc1ccc2c(c1)C(NC(C)=O)C(=O)N2CCN1CCOCC1 (configuration not stated) do in these assays?
VDR inhibitor: 79µM*

How did O=[N+]([O-])c1cc(S(=O)(=O)Nc2ccccc2)ccc1NCc1ccccc1 do in these assays?
VDR inhibitor: 12%

What do the screens show for `Cc1c(C(=O)Nc2cnccn2)oc2ccccc12`?
VDR inhibitor: 6%

Continued, overlapping the part above by six compounds.
Results for CN(Cc1ccccc1)S(=O)(=O)c1nnc(NC(=O)c2ccccc2)s1 ?
VDR inhibitor: 14%&-4%

How did COc1ccc(CCNC(=O)CSc2nnc(-c3cccc(F)c3)o2)cc1OC do in these assays?
VDR inhibitor: 15%

Results for COc1ccccc1NC(=O)Cn1cc(C(=O)c2ccco2)c2ccccc21 ?
VDR inhibitor: -9%

How did CCOc1ccc2c(c1)C(NC(C)=O)C(=O)N2CCN1CCOCC1 (configuration not stated) do in these assays?
VDR inhibitor: 79µM*

How did O=[N+]([O-])c1cc(S(=O)(=O)Nc2ccccc2)ccc1NCc1ccccc1 do in these assays?
VDR inhibitor: 12%

What do the screens show for `Cc1c(C(=O)Nc2cnccn2)oc2ccccc12`?
VDR inhibitor: 6%

How did CC[n+]1c(/C=C/N(C)c2ccccc2)n(-c2ccccc2)c2ccc(-c3nc4ccccc4s3)cc21 do in these assays?
VDR inhibitor: 4%&6%

How did CC(C)c1ccccc1N=C1SCCN1C1CCS(=O)(=O)C1 (configuration not stated) do in these assays?
VDR inhibitor: -4%

What do the screens show for `O=C(NC(=S)Nc1ccccc1N1CCOCC1)c1ccccc1F`?
VDR inhibitor: 3%

What do the screens show for `Nc1nc(SCC(=O)Nc2cccc(S(=O)(=O)N3CCCCCC3)c2)n[nH]1`?
VDR inhibitor: -26%

What do the screens show for `N#C/C(=C\c1ccc(Cl)cc1Cl)c1nc(-c2cccc(Cl)c2)cs1`?
VDR inhibitor: -25%

What do the screens show for `COc1ccc(N2C(=O)CC(N3CCN(c4ccccc4)CC3)C2=O)cc1` (configuration not stated)?
VDR inhibitor: -26%

Results for O=C(COC(=O)c1cncc(Br)c1)NCc1ccccc1 ?
VDR inhibitor: -9%

Results for COc1ccc(C2C(C(=O)c3cccs3)=C(O)C(=O)N2c2nnc(C)s2)cc1OC (configuration not stated) ?
VDR inhibitor: -1%

Results for COc1cc(NC(=O)Nc2ccc3c(c2)OCO3)cc(OC)c1OC ?
VDR inhibitor: 8%

What do the screens show for `COc1ccc(Cl)cc1NC(=O)COC(=O)CNC(=O)C1CCCCC1`?
VDR inhibitor: -9%

How did Cc1cc(C)cc(SCc2noc(C(=O)NCC3CCCO3)c2C(=O)O)c1 (configuration not stated) do in these assays?
VDR inhibitor: -4%

How did CCOC(=O)C1=CC[C@H]2c3c(c4ccc(OC)cc4n3C)C(=O)C1N2S(=O)(=O)c1ccc(C)cc1 do in these assays?
VDR inhibitor: 1%

How did COc1ccc(CCNCC(O)COc2c(C)cccc2C)cc1OC (configuration not stated) do in these assays?
VDR inhibitor: 5%

How did COc1ccccc1C(=O)NCCc1nc2ccccc2[nH]1 do in these assays?
VDR inhibitor: 0%

How did COc1ccc2c(c1)CCc1c(C(=O)Nc3ccc(OC)cc3OC)noc1-2 do in these assays?
VDR inhibitor: -4%

How did Cc1cccc(-c2nc3c4ccccc4n(Cc4cccc(Cl)c4)c(=O)n3n2)c1 do in these assays?
VDR inhibitor: 9%

Results for Cc1cc(NC(=O)c2cc3ccccc3o2)ccc1NC(=O)c1ccccc1 ?
VDR inhibitor: -5%

What do the screens show for `Cn1nnnc1SCCCNCc1cc(Br)ccc1OCc1ccccc1F`?
VDR inhibitor: 14%

What do the screens show for `Cc1ccc(S(=O)(=O)c2cn(CC(=O)Nc3ccc(Cl)cc3)c3ccc(F)cc3c2=O)cc1C`?
VDR inhibitor: -18%

How did Cc1ccsc1C(=O)N1CCCC(C(=O)c2cc(F)ccc2F)C1 (configuration not stated) do in these assays?
VDR inhibitor: 4%

What do the screens show for `CCN(C1CCS(=O)(=O)C1)S(=O)(=O)c1ccc2ccccc2c1` (configuration not stated)?
VDR inhibitor: -1%

Results for Cc1cc(C)nc(NC(C)(C)C(=O)O)n1 ?
VDR inhibitor: -21%

How did CN(C)c1cccc(C(=O)NNC(=O)CSc2ccccc2)c1 do in these assays?
VDR inhibitor: 16%

What do the screens show for `CC(/C=N/n1c(-c2ccco2)n[nH]c1=S)=C\c1ccco1`?
VDR inhibitor: -6%

Results for Cc1cccc(C(c2c(C)nn(-c3ccccc3)c2N)c2c(C)nn(-c3ccccc3)c2N)c1 ?
VDR inhibitor: -6%

What do the screens show for `CCCCOc1ccc(/C=C/C(=O)N(CC)CC(=O)Nc2ccc3c(c2)OCCO3)cc1OC`?
VDR inhibitor: -6%

How did COc1ccc(-n2ncc3c2ncn2nc(-c4ccc(OC)c(OC)c4)nc32)cc1 do in these assays?
VDR inhibitor: 20%

How did Cc1nnc(SCC(=O)N2CCOCC2)c2ccccc12 do in these assays?
VDR inhibitor: -5%

How did Cc1cccc(C)c1NC(=O)CN1C(=O)c2cccc3cccc1c23 do in these assays?
VDR inhibitor: 6%

How did O=C(CC(C(=O)O)c1ccccc1)Nc1cccc2ccccc12 (configuration not stated) do in these assays?
VDR inhibitor: -5%

How did CC(=O)c1ccc(S(=O)(=O)NCCc2cn3ccc(C)cc3n2)cc1 do in these assays?
VDR inhibitor: 21%

What do the screens show for `CC(=O)CSc1ccc(-c2nc3cc(C)c(C)cc3[nH]2)cn1`?
VDR inhibitor: -22%

Results for N[C@H](COP(=O)(O)O)C(=O)O ?
VDR inhibitor: -16%

How did Cn1cccc1C(=O)N1CCC2(CC1)CCN(c1ncccn1)CC2 do in these assays?
VDR inhibitor: -14%

What do the screens show for `O=C1CCCC2=C1C(c1cccs1)n1nc(SCc3ccccc3)nc1N2` (configuration not stated)?
VDR inhibitor: -18%

How did O=C(CSc1nc2c([nH]c3ccccc32)c(=O)n1-c1cccc(Cl)c1)NCc1ccccc1 do in these assays?
VDR inhibitor: -9%

What do the screens show for `C/C(CC(=O)Nc1cc(Cl)ccc1Cl)=N\NC(=O)c1ccccc1Br`?
VDR inhibitor: -3%

How did O=C(Nc1ccc(-c2noc(COc3ccccc3Cl)n2)cc1)c1ccco1 do in these assays?
VDR inhibitor: 15%

How did O=C(CCCCn1c(=O)c2ccccc2n(Cc2ccc(Cl)cc2)c1=O)NCc1ccccc1Cl do in these assays?
VDR inhibitor: -6%

How did COc1ccc(C(=O)Nc2c3c(nn2-c2ccc([N+](=O)[O-])cc2)CS(=O)(=O)C3)cc1 do in these assays?
VDR inhibitor: -6%

What do the screens show for `O=C(CSc1ccc2c(c1)OCCO2)Nc1cccc(S(=O)(=O)N2CCCCC2)c1`?
VDR inhibitor: 12%

How did COc1cc(C2CC(=O)Nc3ccccc3S2)cc(OC)c1OC (configuration not stated) do in these assays?
VDR inhibitor: 2%

How did Fc1ccc(COc2ccccc2-c2ccnc3ncnn23)cc1 do in these assays?
VDR inhibitor: 0%

Results for CC(C)Cn1c(CCCNC(=O)c2ccco2)nc2ccccc21 ?
VDR inhibitor: -11%

How did C=CCOc1ccccc1/C=N/n1nnnc1N do in these assays?
VDR inhibitor: -14%

Results for CC1=C(C(=O)Nc2ccccc2)C(c2ccc(O)cc2)n2nc(-c3ccc(Cl)cc3)nc2N1 (configuration not stated) ?
VDR inhibitor: -25%

What do the screens show for `Cc1ccccc1-n1nnnc1SCC(C)C`?
VDR inhibitor: -5%

What do the screens show for `CCCn1c(=O)c(C(=O)Nc2ccccc2C(=O)OCC)c(O)c2ccccc21`?
VDR inhibitor: 18%

What do the screens show for `O=C(Nc1nccs1)c1cc(-c2ccccc2)nc2ccccc12`?
VDR inhibitor: -1%

Results for O=C(Nc1ccccc1N1CCOCC1)c1cc2c(s1)CCCCC2 ?
VDR inhibitor: -7%

Results for O=C(/C=C/c1ccc(F)cc1)NC(Cc1c[nH]c2ccccc12)C(=O)O (configuration not stated) ?
VDR inhibitor: 17%

How did CCc1ccccc1-n1c(-c2ccncc2)n[nH]c1=S do in these assays?
VDR inhibitor: 0%

Results for O=C(NCCN1CCCCC1)c1ccc(=O)oc1 ?
VDR inhibitor: -9%

Results for Cc1ccc(/C=C/C(O)=C2/C(=O)N(C)C3(C)CC2c2ccccc2O3)cc1 (configuration not stated) ?
VDR inhibitor: -9%

How did CCOc1ccc(Cn2c3ccc(OC)cc3c3nc4ccccc4nc32)cc1 do in these assays?
VDR inhibitor: -23%

Results for O=C(N1CCOCC1)C12CCC3CC(CC(C3)C1)C2 ?
VDR inhibitor: 17%

What do the screens show for `COc1ccc(S(=O)(=O)N(Cc2ccco2)Cc2cc3ccccc3[nH]c2=O)cc1`?
VDR inhibitor: 0%

What do the screens show for `CCNC(=O)NC(=O)C(C)SCc1ccccc1C` (configuration not stated)?
VDR inhibitor: 11%

How did COc1cc(C2CC(=O)Oc3cc(O)ccc32)cc(OC)c1OC (configuration not stated) do in these assays?
VDR inhibitor: 12%&0%

What do the screens show for `COc1cccc(N=c2oc3cc(O)ccc3cc2C(=O)NCC2CCCO2)c1` (configuration not stated)?
VDR inhibitor: -26%

What do the screens show for `CCCN(CCO)Cc1cccc(Cl)c1`?
VDR inhibitor: 5%

What do the screens show for `CNS(=O)(=O)c1ccc(CCC(=O)N2CCOCC2)cc1`?
VDR inhibitor: -21%

Results for CCn1cc(C(=O)N2CCN(c3ccccc3OC)CC2)c(=O)c2cc(S(=O)(=O)N3CCC(C)CC3)ccc21 ?
VDR inhibitor: -11%

Results for O=c1c2cc(Br)ccc2nc2n1CCCCC2 ?
VDR inhibitor: 9%

What do the screens show for `CCOCC(=O)Nc1ccc2c(c1)OCCO2`?
VDR inhibitor: -8%

How did CCc1c(C2(O)CCCCC2)[nH]c2ncccc12 do in these assays?
VDR inhibitor: -6%

What do the screens show for `O=C(NCCC1=CCCCC1)c1ccc(F)cc1`?
VDR inhibitor: -7%

What do the screens show for `COc1ccc(C(=O)CSC#N)cc1OC`?
VDR inhibitor: inconclusive

Results for CC(C)(/C=N/NC(=O)CSCc1ccccc1Cl)CCC#N ?
VDR inhibitor: -27%

What do the screens show for `Cn1nnnc1SCCOc1ccc(C#N)cc1`?
VDR inhibitor: 4%

Results for COc1cc(OC)cc(-c2c(-c3cccs3)c3cc(-c4ccc(CN5CCOCC5)cc4)ccc3n2C)c1 ?
VDR inhibitor: -18%

How did COc1cc(N)c(Cl)cc1C(=O)OCC(=O)c1cccs1 do in these assays?
VDR inhibitor: 12%

What do the screens show for `O=C(Nc1cccc(-c2ccc3nncn3n2)c1)C(F)(F)F`?
VDR inhibitor: 6%

What do the screens show for `COc1cc(NC(=O)c2cc(C)nc3ccccc23)cc(OC)c1`?
VDR inhibitor: 11%

How did Cc1ccc(S(=O)(=O)N2CCCC2CNC(=O)C(=O)NC2CC2)cc1 (configuration not stated) do in these assays?
VDR inhibitor: 16%

Results for C/C(=N\NC(=O)c1ccccc1)c1ccc2c(c1)OCO2 ?
VDR inhibitor: 3%

3 compounds picked at random from those above:
Results for C/C(=N\NC(=O)c1ccccc1)c1ccc2c(c1)OCO2 ?
VDR inhibitor: 3%

How did Cc1ccc(S(=O)(=O)N2CCCC2CNC(=O)C(=O)NC2CC2)cc1 (configuration not stated) do in these assays?
VDR inhibitor: 16%

What do the screens show for `O=C(Nc1cccc(-c2ccc3nncn3n2)c1)C(F)(F)F`?
VDR inhibitor: 6%

Not all compounds are listed; the hit share may differ from the screen's.
